VACV Venus inh: qHTS for Stage-Specific Inhibitors of Vaccinia Orthopoxvirus: Venus Reporter Primary qHTS | Vaccinia virus Venus reporter expression, fluorescence | Potency, µM (series often up to 36.5 µM), for the others: at the highest dose activity change, negative = inhibition, most hits filed as inhibitors | hit rate 0.46% among 330,000; active means well fitted inhibition curve with a large enough effect; inconclusive means small, poorly fitted or top-dose-only effect; inactive means no such curve, though single readings can be large or run the other way; tested in A549 cells; also: nearly all actives have a fitted effect of over 30% in size; inactives centre near -10
Vaccinia mCherry: qHTS for Stage-Specific Inhibitors of Vaccinia Orthopoxvirus: mCherry Reporter Primary qHTS; Vaccinia virus mCherry reporter infection, fluorescence; about a quarter of the inactives have no number; Potency, µM (top dose mostly 36.5 µM), inactives show top-dose activity change, negative = inhibition, actives largely listed as inhibitors; hit rate 0.63% among 310,000; AID 720579, 2013; active = well fitted inhibition curve with a large enough effect; inconclusive = small, poorly fitted or top-dose-only effect; inactive = no such curve, though single readings can be large or run the other way; tested in A549 cells; also: nearly all actives have a fitted effect of over 35% in size; inactives centre near -10
* marks the source's active call; other numbers are inactive results; i = inactive; ? = inconclusive; / = no result given; & = joins results of further samples; [ ] = another dose, or the depositor's remark. % is scaled to controls: 0 for no effect and ±100 for the full control effect; potency is read from the fitted curve at half-maximal effect.

SMILES	VACV Venus inh	Vaccinia mCherry
CC(Oc1cc2oc(=O)c3c(c2cc1Cl)CCC3)C(=O)N1C[C@H]2C[C@@H](C1)c1cccc(=O)n1C2 (stereo not given in full)	1.2%	-4.1%
COC(=O)C[C@H]1CC[C@H](NC(=O)Cc2ccccc2)[C@@H](CO)O1	-4.3%	-3.9%
COc1ccc(-n2nc(C(=O)N3CCCC(C)C3)c3c4ccccc4n(C)c3c2=O)cc1 (stereo not given)	-22.1%	-12.4%
COc1ccc(Cl)cc1N(C)C(=O)c1cc2c(=O)oc3ccc(C)cc3c2s1	-7.0%	-21.4%
CC(=O)Nc1ccc(S(=O)(=O)NC(C)c2nc(-c3ccccc3)no2)cc1 (stereo not given)	3.3%	-4.3%
CCOc1ccc(OCCC(=O)OC(C)C(=O)Nc2ccc(C(C)=O)cc2)cc1 (stereo not given)	-9.5%	i
NC(Cc1ccc(F)cc1)c1csc(Nc2nccc(C(F)(F)F)n2)n1 (stereo not given)	-26.6%	-1.4%
COc1cccc(NC(=O)CCc2nnc3ccc(NCc4ccco4)nn23)c1	-11.0%	i
C=CC[C@@]12C=C(OC)C(=O)C(OC)=C1O[C@H](c1ccc3c(c1)OCO3)[C@H]2C	4.8%	-2.7%
Cc1cc(C)cc(NS(=O)(=O)c2cc(C(=O)NCc3ccccn3)ccc2Cl)c1	-12.5%	-14.2%
COc1ccccc1CN(C)C[C@H]1OCc2cnnn2CCCC(=O)N([C@H](C)CO)C[C@@H]1C	-0.8%	i
COc1ccc(-c2ccc(N3C(c4ccsc4)=Cc4ccc(F)cc4C3c3c[nH]c4ccccc34)cc2)cc1 (stereo not given)	7.5%	-2.0%
CCOC(=O)N1CCN(C(=O)CSc2nnc3[nH]c(=O)c(C)c(C)n23)CC1	-6.0%	-11.0%
NS(=O)(=O)c1cc(C(=O)OCC(=O)Nc2ccc(Cl)cc2[N+](=O)[O-])ccc1Cl	4.5%	-5.2%
COc1ccccc1N1CCN(C(=O)c2ccc(Nc3nc4ccccc4n4nnnc34)cc2)CC1	0.6%	-7.3%

Nothing new here: an excerpt of the list.
SMILES	VACV Venus inh	Vaccinia mCherry
CCOC(=O)N1CCN(C(=O)CSc2nnc3[nH]c(=O)c(C)c(C)n23)CC1	-6.0%	-11.0%
NS(=O)(=O)c1cc(C(=O)OCC(=O)Nc2ccc(Cl)cc2[N+](=O)[O-])ccc1Cl	4.5%	-5.2%
COc1ccccc1N1CCN(C(=O)c2ccc(Nc3nc4ccccc4n4nnnc34)cc2)CC1	0.6%	-7.3%

Complete entries as entered above. Screens in order: VACV Venus inh, Vaccinia mCherry
Record of COc1ccccc1CN(C)C[C@H]1OCc2cnnn2CCCC(=O)N([C@H](C)CO)C[C@@H]1C → -0.8%, i
Record of COc1ccc(-c2ccc(N3C(c4ccsc4)=Cc4ccc(F)cc4C3c3c[nH]c4ccccc34)cc2)cc1 (stereo not given) → 7.5%, -2.0%
Record of Cc1cc(C)cc(NS(=O)(=O)c2cc(C(=O)NCc3ccccn3)ccc2Cl)c1 → -12.5%, -14.2%
Record of COc1ccccc1N1CCN(C(=O)c2ccc(Nc3nc4ccccc4n4nnnc34)cc2)CC1 → 0.6%, -7.3%

Going on with the list:
SMILES	VACV Venus inh	Vaccinia mCherry
CC1C(=O)Nc2ccccc2N1C(=O)c1ccc(Cl)c(Cl)c1 (stereo not given)	0.0%	1.7%
COC(=O)C1CC23C=CCN4CCC5(c6ccccc6NC15C2C)C43 (stereo not given)	?	12.6µM*
CCCN(CCC)CCCNC(=O)C1CCC(CNS(=O)(=O)c2cccc3nsnc23)CC1 (stereo not given)	3.6%	-14.9%
CCOC(=O)c1ccc(NC(=O)CSc2nc(-c3ccc(OC)cc3)cc(C(F)(F)F)c2C#N)cc1	-8.6%	-3.4%
COc1ccc(CCNC(=O)COc2ncnc3ccccc23)cc1	-8.4%	i
CSc1cccc(NC(=O)Nc2ccc(Cl)cc2)c1	-22.9%	/
O=S(=O)(NC1CC1)c1ccc(S(=O)(=O)N2CCCC(c3nc(-c4cccnc4)no3)C2)cc1 (stereo not given)	-19.9%	-19.6%
CCOc1ccc(OCC)c(NC(=O)CN(C)S(=O)(=O)c2ccc3c(c2)CCCC(=O)N3)c1	-13.9%	-22.7%
N#CC(c1ccc(O)cc1)c1ncc(C(F)(F)F)cc1Cl (stereo not given)	-5.8%	-1.2%
CCc1ccc(-n2c(O)c(C(C)=O)c(=O)[nH]c2=O)cc1 (tested in a mixture with another compound)	-8.4%	-13.8%
Cc1nnc2sc(SCc3ccc(Cl)cc3)nn2c1=O	-9.0%	-1.2%
COc1ccccc1CN(C(=O)CNC(=O)c1ccco1)C(C(=O)NCC1CCCO1)c1ccccc1 (stereo not given)	-5.7%	2.4%
COc1ccc(-c2nn(-c3ccccc3)cc2/C=C\C(=O)N2CCOCC2)cc1[N+](=O)[O-]	-6.9%	i
CN1CCN(C(=O)c2ccc(N(Cc3ccc(Cl)cc3)S(C)(=O)=O)cc2)CC1	-9.5%	-18.5%
CC(C)NS(=O)(=O)c1ccc(CCC(=O)O)cc1	-18.9%	-11.0%
COc1ccc(CNc2ccc(S(N)(=O)=O)cc2)c(OC)c1OC	-10.8%	-7.7%
Cc1ccccc1C(=O)N/N=C/c1ccccn1	-7.5%	-6.6%
CCCn1c(N)c(C(=O)CSc2nc3ccccc3n2CCC#N)c(=O)n(C)c1=O	-7.1%	-2.6%
COc1ccc2[nH]c3c(c2c1)CCN1C(=O)C(CC(=O)NCc2cccc(C(F)(F)F)c2)C[C@H](C(=O)N2CCCCC2)[C@@]31CCc1ccccc1 (stereo not given in full)	?	?
O=C(N/N=C/c1ccco1)c1ccccc1OCc1ccc(Br)cc1	-20.8%	-10.3%
CCOCCc1nn2c(=O)cc(COC(=O)c3cccc(C)c3)nc2s1	-12.4%	-5.1%
COc1ccc(C)cc1Nc1n[n+](-c2ccccc2)c(-c2ccc(N(C)C)cc2)s1	?	-23.4%
CCOc1cc(/C=N/NC(=O)c2ccccn2)ccc1OC(=O)c1cccs1	-13.7%	-1.4%
CCOc1ccccc1NC(=O)Cc1coc2c(C)c(C)ccc12	-9.2%	-13.8%
COc1ccc(NS(=O)(=O)c2cccs2)cn1	2.8%	-0.7%
Cc1[nH]c2ccccc2c1/C=C/c1nc2ccccc2c(=O)n1-c1ccc([N+](=O)[O-])cc1	-7.3%	i
Cc1[nH]c2ccccc2c1/C=N/NC(=O)c1cc(C(C)(C)C)[nH]n1	-20.8%	-1.1%
COc1cc(NC(=O)Cn2c(=O)n(-c3ccccc3)c(=O)c3c4c(sc32)CCCC4)cc(OC)c1	-12.0%	-16.3%
C[C@@H]1CN([C@H](C)CO)C(=O)CCCn2nncc2CO[C@@H]1CN(C)S(=O)(=O)c1cccc(C#N)c1	-16.8%	-15.8%
CCOC(=O)CSc1nc2cc3c(cc2c(=O)n1CCCCCC(=O)NCc1ccc2c(c1)OCO2)OCO3	-28.1%	-26.5%
COc1ccccc1N1CCN(C(=O)c2ccc3c(Cl)c4c(nc3c2)CCCC4)CC1	?	-10.6%
COc1cc(NC(=O)c2ccnnc2)cc(C(=O)Nc2cccc(C(F)(F)F)c2)c1	7.5%	-13.9%
COc1ccc(N(CC(=O)NN=C2CCCC2)S(=O)(=O)c2ccccc2)cc1	-3.4%	-12.8%
Cc1c(NC(=O)c2nn3c(C(F)(F)F)cc(-c4ccccc4)nc3c2Cl)c(=O)n(-c2ccccc2)n1C	-28.4%	?
C#CCOCCOCCOCCNc1nc(N2CCN(C(=O)[C@H](CCCN=C(N)N)n3cc(C(N)[C@@H](C)CC)nn3)CC2)nc(N2CCN(C(=O)[C@H](CCC(=O)O)n3cc([C@@H](N)CCCCN)nn3)CC2)n1 (stereo not given in full)	-2.8%	-5.4%
CSc1nnc(C)c(=O)n1COC(=O)c1ccc(S(=O)(=O)N2CCOCC2)cc1	-10.2%	i
Cc1ccccc1CN1CCCN(CC(=O)Nc2ccc(F)cc2)S1(=O)=O	-11.2%	-8.1%
CC1(C(=O)Nc2cccc(C(F)(F)F)c2)Cc2c(-c3ccc4c(c3)OCO4)ccnc2O1 (stereo not given)	-13.0%	5.8%
CC(C)Cc1cc(C(=O)Nc2ccccc2)c2ccccc2n1	-8.2%	-15.9%
CC(=O)Nc1ccc(S(=O)(=O)n2nc(-c3ccc(C)cc3)nc2N)cc1	-20.6%	-26.5%
N#CCNC(=O)C1c2ccccc2Oc2ccccc21	3.2%	-8.3%
O=C(COc1ccccc1F)OCc1cc(=O)n2nc(C3CCCCC3)sc2n1	-11.7%	-10.1%
COc1ccc(NC(=O)C(CCSC)NC(N)=O)cc1NS(=O)(=O)c1ccc(F)cc1 (stereo not given)	2.4%	i
COc1ccc(N=C(c2ccccc2)c2c(C)[nH]n(-c3ccccc3)c2=O)c(OC)c1	-12.3%	50.4%[activator]
O=C(CN1C(=O)c2cccnc2Oc2ccc(Cl)cc21)Nc1ccccc1F	-5.1%	-10.2%
Cc1cc(=O)[nH]c(SCCOc2ccc(OC(C)C)cc2)n1	-14.8%	-20.9%
CC(C)C1C(=O)N(Cc2cn(CC3CCCCC3)nn2)CCS(=O)(=O)N1Cc1ccc(-c2ccc(F)nc2)cc1 (stereo not given)	?	-8.8%
CC(C)C[C@H](N)c1cn([C@@H](Cc2ccc(O)cc2)C(=O)N2CCNCC2)nn1	-3.1%	-11.1%
CCCn1c(N)c(C(=O)CSc2nc3ccccc3s2)c(=O)[nH]c1=O	-14.7%	11.2µM*
CC(=O)N1CCCC(C)(C(=O)Nc2ccc3nc(C)ccc3c2)C1 (stereo not given)	-4.1%	13.4%
O=C(Nc1ccc(Br)cc1F)C1CC(=O)N(C2CCCCC2)C1 (stereo not given)	-20.6%	-8.2%
CC(C)(C)OC(=O)NCCCCCNC(=O)c1[nH]cnc1C(=O)NC1CCN(C(=O)OC(C)(C)C)CC1	-20.7%	-16.0%
CN(C)c1nc(N/N=C/c2ccccc2O)nc(Nc2ccc(F)cc2)n1	?	7.94µM*
CC(=O)OCCc1c2ccccc2c(CCCN(C)C)c2ccccc12	0.0%	i
COc1cc2c3c(c1)/C(=C1/SC(=S)NC1=O)C(=O)N3C(C)(C)C=C2C	-9.4%	-5.7%
Cc1csc(N(C(=O)c2ccccc2F)c2ccccc2)n1	-8.0%	i
O=C(COC(=O)CSc1ccc2ccccc2c1)NCc1ccc2c(c1)OCO2	-5.8%	-14.8%
Cc1ccccc1C(=O)O/N=C(\N)c1ccc([N+](=O)[O-])cc1	2.2%	?
CCOC(=O)C1CCN(c2c(NCCN3CCCCC3C)c(=O)c2=O)CC1 (stereo not given)	3.0%	-11.1%
O=C(O)CCCNS(=O)(=O)c1ccccc1	1.1%	-11.5%

Other entries.
SMILES	VACV Venus inh	Vaccinia mCherry
COC(=O)c1cc2oc3ccccc3c2n1CC(=O)Nc1ccc(OC)c(OC)c1	2.7%	-14.8%
O=c1c2c3c(sc2nc2n1CCC2)CCC3	-21.3%	-9.0%
O=S(=O)(Nc1ccccn1)c1ccc(Cl)c2ccccc12	-11.8%	-0.7%
COc1cc(CN2CCCC(c3nc(-c4ccncc4)ncc3-c3ccccc3)C2)ccc1O (stereo not given)	-0.2%	-12.1%
CC1CCN(C(=O)c2ccc(S(=O)(=O)Cc3ccccc3F)c([N+](=O)[O-])c2)CC1	-16.8%	i
COc1ccc2cc(C(=O)Nc3ccc(Cl)cc3)sc(=O)c2c1OC	-5.6%	-16.2%
COc1ccc(CC(=O)N/N=C(\C)c2cccs2)cc1	-3.2%	i
CCCCOc1ccc(C(=O)Nn2c(-c3cccs3)nc3ccccc3c2=O)cc1	-14.0%	i
CC(C)NC(=O)NC(=O)COC(=O)/C=C/c1ccccc1[N+](=O)[O-]	3.5%	-5.6%
Cc1cccc(S(=O)(=O)c2cn(Cc3ccccc3)c3cc(N4CCCC(C)C4)c(F)cc3c2=O)c1 (stereo not given)	-25.1%	-8.8%
CCOC(=O)C1=C[C@@H](CC)N(S(=O)(=O)c2ccc(C)cc2)[C@H]1c1ccccc1	-9.2%	1.4%
O=C(C1CCCO1)N1CCN(C(=S)Nc2cc(F)cc(F)c2)CC1 (stereo not given)	-17.8%	i
CC1CC2CCCC(O)=C2C(=O)O1 (stereo not given)	-3.8%	15.5%
COc1cccc(C(=O)Oc2cc(N)n(S(=O)(=O)c3ccc(C)cc3)n2)c1OC	?	/
O=C1CN(/N=C/c2ccc([N+](=O)[O-])o2)C(=O)N1	-8.9%&-9.3%	-11.2%
C[C@@H]1CC[C@@]23COC(=O)C2=CCC[C@@H]3[C@@]1(C)CC/C(=C/CO)CO	-11.8%	-10.8%
Cc1ccccc1Cn1c(=O)n(CCc2ccccc2)c(=O)c2sc3ccccc3c21	-12.9%	-10.0%
Cc1ccc(NC(=O)CN(C)C(=O)CSc2nc(C)cc(C)n2)cc1	3.5%	-12.1%
c1ccc2[nH]c(SCc3cn4cccnc4n3)nc2c1	0.5%	-16.2%
O=C(Nc1cccnc1)OC1CCCCC1	-2.5%	i
CCOC(=O)c1ccc(NC(=O)C2CCCN(c3ncnc4onc(C)c34)C2)cc1 (stereo not given)	-28.7%	-24.2%
O=C(c1nc2ccccc2s1)N1CCSCC1	-4.7%	-8.0%
Cc1ccc(NC(=O)c2cc(S(=O)(=O)N3CCCC3)cn2C)cc1	-14.6%	i
Cc1cccc(N(O)C(=O)Nc2cccc(Cl)c2)c1	-2.8%	i
Cc1ccc(C)c(OCCC(=O)OCC(=O)Nc2cccc(S(=O)(=O)N3CCCC3)c2)c1	-12.6%	-29.1%
COc1nonc1NCn1nc(C)cc1C	-2.6%	-3.5%

Screening data deposited in PubChem BioAssay by National Center for Advancing Translational Sciences (NCATS).
